Screening data: PubChem BioAssay, National Center for Advancing Translational Sciences (NCATS)
StopGo RLuc: Primary qHTS Assay for Foot and Mouth Disease Virus Antivirals against NCGC Sytravon and CBC Compound Libraries: Renilla Luciferase Signal | HEK cells with a luciferase reporter of 2A StopGo recoding | Potency, µM (series often up to 57.5 µM), for inactives: at the top dose signal change, negative = less light | hit rate 0.32% among 120,000 | AID 1745857, 2022; active means well fitted falling curve with a large enough effect; inconclusive means small, poorly fitted or top-dose-only effect; inactive means no such curve, though single readings can be large or run the other way; note: nearly all actives have a fitted effect of over 55% in size; overnight with compound
2A firefly: Primary qHTS Assay for Foot and Mouth Disease Virus Antivirals against NCGC Sytravon and CBC Compound Libraries: Firefly Luciferase Signal; HEK cells with a luciferase reporter of 2A StopGo recoding; Potency, µM (top dose mostly 57.5 µM), for the others: at the highest dose signal change, negative = less light; hit rate 0.23% among 120,000; AID 1745856, 2022; active = well fitted falling curve with a large enough effect; inconclusive = small, poorly fitted or top-dose-only effect; inactive = no such curve, though single readings can be large or run the other way; note: nearly all actives have a fitted effect of over 60% in size; overnight with compound
An asterisk follows results filed as active; u = inconclusive; & = joins results of further samples; [ ] = remark or other dose. % is set by controls: 0 for no effect and ±100 for the full control effect; potency is the fitted concentration of half-maximal effect.

Structure	2A firefly	StopGo RLuc
Cc1cccc(N2CCN(S(=O)(=O)c3ccc4c(c3)C(C(C)C)C(=O)N4)CC2)c1C (stereo not given)	u	u
Cc1cc(CNC(=O)c2ccc3c(c2)OCO3)c2ccccc2n1	0%	25%
CC1CCCN(CCCCNC(=O)CCc2ccc(C#N)cc2)C1 (stereo not given)	3%	-4%
Cc1ccc(C)c(N2CCN(C(=O)c3ccc(CS(=O)(=O)c4ccc(Br)cc4)o3)CC2)c1	-19%	1%
CCOc1ccc(-c2cc(C(=O)NCc3ccc(C)cc3)c3ccccc3n2)cc1	-13%	-13%
O=C(COc1ccc(-c2ccccc2)cc1Cl)OCC(=O)c1ccc[nH]1	-10%	-19%
CNC(=O)c1sc2ncccc2c1-n1cccc1	-1%	7%
COc1ccccc1CCNCc1cccs1	51%[activator]	20%
COc1cc(C2c3c(n[nH]c3C)Nc3[nH]c(=O)[nH]c(=O)c32)ccc1OC(F)F (stereo not given)	-1%	-7%
Cc1nn(CC(O)c2ccc(F)cc2)c(=O)c2ccccc12 (stereo not given)	0%	-4%
CCOCCn1c(=O)c2c(nc(-n3nc(C)c(C)c3C)n2CC)n(C)c1=O	10%	-2%
O=C(CCC1CCCC1)NC1CCc2ccccc21 (stereo not given)	0%	65%[activator]
Cc1ccc(Nc2nc3ccccc3nc2-n2nc(C)cc2C)c(Cl)c1	3%	-3%
COc1ccc(C2/C(=C(\O)c3ccc(F)cc3)C(=O)C(=O)N2c2cc(C)on2)cc1OC (stereo not given)	10%	3%
O=C(NCCN1CCCC1)C1CCN(c2nnc(-n3cccc3)s2)CC1	14%	-13%
CC(NC(=O)/C(C#N)=C\c1ccccc1)C1CC2CCC1C2 (stereo not given)	-18%	-4%
CCCC(=O)Nc1cc(C)c(O)c(-c2nc3ncccc3o2)c1	-2%	1%
Cc1c(C)c(C)c(S(=O)(=O)Nc2ccc(F)c(C(=O)O)c2)c(C)c1C	1%	18%
COC(=O)c1ccccc1NC(=O)c1cnn2cccnc12	17%	10%
O=S(Cc1ccc(Cl)cc1)Cc1c(F)cccc1Cl (stereo not given)	0%	0%
CC(=O)Nc1ccc(S(=O)(=O)NC2(C(F)(F)F)C(=O)Nc3c2c(=O)[nH]c(=O)n3-c2ccc(C)c(C)c2)cc1 (stereo not given)	-20%	-16%
CCCC(C(=O)NC(C)C)c1ccccc1 (stereo not given)	4%	-3%
COc1cccc(NC(=O)Cn2c(=O)n(-c3cccc(OC)c3)c(=O)c3c4c(sc32)CCCC4)c1	-12%	-7%
Cc1ccc2c(CN3CCN(CCO)CC3)cc(=O)oc2c1C	-15%	-20%
CCOC(=O)Cn1c(=O)n(-c2ccccc2OC)c2nc(-c3ccccc3C)nc(C(N)=O)c21	2%	9%
O=C(Cn1ncc2c3ccccc3n(Cc3cccc(Cl)c3)c2c1=O)NC1CCCCCC1	-7%	1%
Cc1nn(S(=O)(=O)c2ccc(F)cc2)c(C)c1S(=O)(=O)N1CCC(C)CC1	-9%	-2%
CCN(CC)C(=O)c1sc2c(c1C)c(=O)n(-c1ccc(C)c(C)c1)c(=O)n2CC(=O)Nc1ccc(OC)cc1OC	-22%	-5%
Cc1cnc(C(=O)N(C)Cc2ccc(Cl)s2)cn1	-5%	-10%
CCCOc1ccc(-c2cccc(NS(=O)(=O)c3cccs3)c2)nn1	37%[activator]	117%[activator]
CC(=O)c1ccc(NC(=O)C2(C#N)CCCC2)cc1	0%	11%
COc1cccc(CNc2nc(NCc3cccc(OC)c3)n(S(=O)(=O)c3ccccc3)n2)c1	7%	96%[activator]

Single records (already shown). Order of values: 2A firefly	StopGo RLuc
`Cc1nn(S(=O)(=O)c2ccc(F)cc2)c(C)c1S(=O)(=O)N1CCC(C)CC1` in the list: -9%	-2%
`CCOC(=O)Cn1c(=O)n(-c2ccccc2OC)c2nc(-c3ccccc3C)nc(C(N)=O)c21` in the list: 2%	9%
`O=C(Cn1ncc2c3ccccc3n(Cc3cccc(Cl)c3)c2c1=O)NC1CCCCCC1` in the list: -7%	1%
`CCN(CC)C(=O)c1sc2c(c1C)c(=O)n(-c1ccc(C)c(C)c1)c(=O)n2CC(=O)Nc1ccc(OC)cc1OC` in the list: -22%	-5%
`CC(=O)c1ccc(NC(=O)C2(C#N)CCCC2)cc1` in the list: 0%	11%

(cont.)
Structure	2A firefly	StopGo RLuc
COc1ccc(NC(=O)Cn2c(=O)n(-c3ccc(C)c(C)c3)c(=O)c3c4c(sc32)CCCCC4)cc1Cl	-2%	3%
OCc1nc2ccccc2s1	0%	-14%[1.06 µM]
CNC(=S)NNC(=O)c1cccnc1	u	u
Cc1cnc(NC(=O)Cn2ccc3c(Br)cccc32)s1	782%[activator]	457%[activator]
Cc1ccc(C(C)C)c(OCC(=O)Nc2c(C(=O)c3ccccc3)oc3ccccc23)c1	5%	-16%
Cc1ccc(-c2ccc(C=O)o2)cc1C	41%[activator]	u
CCOC(=O)c1cccc(NS(=O)(=O)c2c(-c3ccc(C)cc3)csc2C(=O)OC)c1	-22%	39%[activator]
Cc1ccc(NC(=O)c2c3c(nc4ccccc24)CCCC3)cc1Cl	8%	1%
Cc1nc2cc(Cl)ccc2cc1C(=O)NC1CCS(=O)(=O)C1 (stereo not given)	-3%	-8%
Cc1ccc2c(=O)c(C(=O)c3ccc(Cl)cc3)cn(CC(=O)NC3CCCCC3)c2n1	-6%	-6%
CCc1ccc(C2=C(C)C(N3CCC(C(=O)NCc4ccc(C)o4)CC3)=NS2(=O)=O)cc1	-1%	17%
COc1cc(NS(=O)(=O)c2ccc(F)cc2)c(C(=O)O)cc1OC	11%	-1%
COc1cc(Nc2nc3ccccc3nc2NS(=O)(=O)c2cccc(Cl)c2)cc(OC)c1	12%	2%
COc1ccc2[nH]c(C)c(CCC(C)=O)c(=S)c2c1	13%	-5%
COc1ccc(Oc2c(C)oc3cc(OC(=O)c4ccc5c(c4)OCO5)ccc3c2=O)cc1	-3%	6%
CCn1c(SCC(=O)Nc2ccc3c(c2)OCCO3)nc2ccsc2c1=O	4%	0%
CCOc1ccc2c(c1)cc(C(=O)Nc1ccc(OC)cc1)n2C	0%	7%
CC(Sc1nc(CN2CCOCC2)nc2ccccc12)C(=O)N1CCCCCC1 (stereo not given)	-10%	-8%
Cc1ccc2c(CCNC(=O)CNC(=O)c3ccccc3)c[nH]c2c1	15%	40%[activator]
COc1ccc(C(=O)OCC(=O)NCC(F)(F)F)cc1	3%	-1%
O=C(CCc1c[nH]c2ccccc12)N(Cc1ccc(F)cc1)C1CC1	20%	40%[activator]
CC(NS(=O)(=O)c1c(Cl)cc(Br)cc1Cl)C(=O)N1CCCCC1 (stereo not given)	-14%	1%
COC(=O)c1cccc(NC(=O)c2cc[n+]([O-])cc2)c1	41%[activator]	36%[activator]
CN(C(=O)COC(=O)c1ccc(F)c(Cl)c1)c1ccc(F)cc1	-7%	-5%
CCCCNC(=O)CN1C(=O)c2c(c3ccccc3n2C)C1c1ccc(OC)cc1 (stereo not given)	-5%	13%
O=c1[nH]nc(SCc2ncc(-c3cccc(Cl)c3)o2)n1C1CC1	34%[activator]	-8%
CC(CCc1ccccc1)NC(=O)C(=O)Nc1cccc(N2CCCS2(=O)=O)c1 (stereo not given)	0%	15%
CCCCn1c(=O)[nH]c(=O)c2c1nc(-c1ccncc1)n2CCC	4%	-5%
Cc1csc(NC(=O)CCc2ncc(-c3ccc(Cl)cc3Cl)o2)n1	0%	4%
O=S1(=O)CCC(N2CCN(Cc3cccc(S(=O)(=O)N4CCOCC4)c3)CC2)C1 (stereo not given)	22%	2%
CN(Cc1nc2ccccc2[nH]1)S(=O)(=O)c1ccc(F)cc1	25%	8%
CCOC(=O)Nc1cccc(C(=O)OCc2cccc(C(=O)OC)c2)c1	76%[activator]	-3%[1.06 µM]
COc1ccc(/C=C/c2cc(C(=O)O)c3ccccc3n2)cc1OC	171%[activator]	8%
CC(C)n1nccc1NC(=O)COc1ccc(C#N)cc1Cl	20%	-2%
CC(=O)c1ccc(NC(=O)CSc2nc(=O)n(Cc3ccncc3)c3c2CCC3)cc1	3%&5%	-16%&35%
Cc1ccc(N=C2NN=C(c3cc(C)n(CC4CCCO4)c3C)CS2)cc1C (stereo not given)	-4%	-9%
O=C(Nc1ccc(F)cc1)Nc1nnc(SCC(=O)N2CCCCC2)s1	-8%	-2%
CCn1cc(C(=O)NCc2ccc(Cl)cc2)c(=O)c2cc(S(=O)(=O)N3CCc4ccccc4C3)ccc21	-21%	-9%
O=C(NNC(=S)NCCc1ccccc1)c1ccccc1	113%[activator]	27%
O=C(c1nc(-c2cccnc2)no1)N1CCN(c2ccc(Cl)cc2)CC1	9%	0%
O=C(O)CSc1ccc(F)c(F)c1	20%	9%
COc1ccc(CN(C(=O)c2cc(=O)c3cc(C)cc(C)c3o2)C2CCS(=O)(=O)C2)cc1 (stereo not given)	7%	35%[activator]
COc1ccc2c(CNc3ccccc3)cc(=O)oc2c1	30%	17%
CCCCCCCCCCCCNC(=O)c1cccs1	3%	-6%
C/C=C/Cn1c(SCC(=O)Nc2ccccc2)nc2c1c(=O)[nH]c(=O)n2C	6%	12%
Cc1ccc(NC(=O)CSc2cn(CC(=O)N3CCCCCC3)c3ccccc23)cc1	-8%	3%
Cc1cc(Cl)ccc1NS(=O)(=O)c1cc2[nH]c(=O)c(=O)[nH]c2cc1C	-15%	-12%
CN(C(=O)c1cnc(N2CCOCC2)c2ccccc12)C1CCCCC1	12%	16%
CCNc1nc(-c2cccs2)nc2ccccc12	14%	19%
COC(=O)c1ccc(CSc2nc3c(c(=O)[nH]2)CCC3)cc1	-5%	6%
CC(C#N)Sc1ncc(-c2ccccc2)[nH]1 (stereo not given)	2%	10%
CCCN(CC#N)CC(=O)NC(=O)Nc1ccccc1	0%	16%
Cc1cc(C)c2c(=O)cc(C(=O)N3CCC(Cc4ccccc4)CC3)oc2c1	13%	3%
Cc1cccc(CN2CCN(Cn3nc(C)c4ccccc4c3=O)CC2)c1	1%	-8%
O=C1CC(C(=O)Nc2ccccc2)n2nc(SCc3ccccc3)nc2N1 (stereo not given)	12%	5%
CCN(c1ccccc1)S(=O)(=O)c1ccc(NC(=O)c2nc(SC(C)C)ncc2Cl)cc1	-20%	68%[activator]

The list continues:
Structure	2A firefly	StopGo RLuc
O=C(Cc1ccc(Cl)cc1Cl)N1CCN(S(=O)(=O)N2CCCC2)CC1	9%	-2%
Cc1ccc2c(C)nc(NC3=NC(C(=O)Nc4ccc(Br)cc4)CC(=O)N3)nc2c1 (stereo not given)	-3%	91%[activator]
CCSc1nnc(-c2nn(C)c3c2CN(S(=O)(=O)c2ccc4c(c2)CCC4)CC3)n1C	0%	25%
Cn1c(=O)[nH]c(=O)c2c1nc(NCc1ccco1)n2Cc1ccc(F)cc1	27%	27%
CCN1CCC(NC(=O)c2ccc(S(=O)(=O)Nc3ccccc3)cc2)CC1	-12%	-23%
CCc1cc(=O)oc2c(C)c(OCC(=O)NCc3ccccn3)ccc12	10%	0%
COc1ccc(C2=CC(c3ccccc3Cl)n3nc(-c4ccc(Cl)cc4)nc3N2)cc1 (stereo not given)	47%[activator]	-1%
COc1ccccc1CNC(=O)Cc1c(C)c2ccc(OC)c(C)c2oc1=O	3%	-3%
O=C1CCCC2=C1C(c1ccsc1)CC(=O)N2c1ccc(F)cc1 (stereo not given)	14%	25%
CC1CCN(Cc2nc3c(Br)cc(Br)cc3c(=O)[nH]2)CC1	-1%	-6%
CCCC(=O)N1CCc2cc(OC)c(OC)cc2C1COc1ccc2c(C)cc(=O)oc2c1 (stereo not given)	-17%	11%
C=CCC1(Nc2c(CC)cccc2CC)CCCCC1	12%	16%
CC(OC(=O)CCNC(=O)OC(C)(C)C)C(=O)c1ccccc1 (stereo not given)	-3%	2%
Cc1ccccc1/C=C(/C#N)C(=O)c1sccc1C	7%	22%
Cc1ccc(-n2nc3c(N4CCC(C(=O)NCCc5ccccc5)CC4)nnc(C)c3c2C)cc1	-11%	-9%
Cc1ccc(C)c(NS(=O)(=O)c2cc3c4c(c2)C(C)C(=O)N4CCC3)c1 (stereo not given)	-9%	212%[activator]
CC1Cc2ccccc2N1S(=O)(=O)c1cccc(Br)c1 (stereo not given)	14%	50%[activator]
CC/C=C(/C)C(=O)Nc1ccc(SC)cc1	122%[activator]	15%
CC(C)(C)OC(=O)N1CCC(c2c(C(=O)NCc3ccccn3)cnn2-c2ccccc2)CC1	-18%	12%
CCCCCCOc1ccc(/C=C(/C#N)C(=O)c2ccccc2)cc1	75%[activator]	-6%
N#CC1(NC(=O)Cc2ccc(C(F)(F)F)cc2)CCC1	3%	14%
CC(C)C(NC(=O)c1nn(C)c(=O)c2ccccc12)c1ccc2c(c1)OCCCO2 (stereo not given)	11%	35%[activator]
CCOC(=O)C1CCN(c2nc3c(S(=O)(=O)c4ccccc4)nnn3c3ccsc23)CC1	-10%	-2%
Cc1c(Cl)cccc1NC(=O)c1nn(Cc2ccccc2)c(=O)c2ccccc12	-4%	-6%

A portion of the library; the hit share may differ from the screen's.
